# Screening data from PubChem BioAssay.
# CSC inhib = cancer stem cell viability inhibitors, primary screen, luminescence | cancer stem cell-like cells viability | inhibition, % at 7.5 µM | actives 1.1% (n = 300,000) | AID 2717, 2010;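 active = mean at 75% or more and at least half the replicates too; tested in HMLE shEcad cells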;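 also: 0% = median of negative and 100% = median of positive control wells; the first replicate is given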
# Env fusion inh = inhibitors of HIV-1 Env-driven cell-cell fusion, primary screen, HeLa-JRFL effector, CEM21 target cells, luciferase | AID 651610, 2012 | inhibition, % at 12.3 µM | actives 1.1% (n = 360,000);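 active = mean replicate inhibition score of at least 50 and every replicate individually at or above 50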;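 also: 0% = plate neutral controls and 100% = maraviroc near 300 nM; one replicate is shown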
# PABP FP inh = PABP poly(A) RNA binding inhibitors, primary screen, biochemical, fluorescence polarization, uHTS | Polyadenylate-binding protein 1 (Homo sapiens), P11940 | inhibition, % at 35 µM | actives 1% (n = 290,000) | AID 2014, 2009;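 active = 50% or more with normal probe brightness, or confirmed in later tests; about a fifth of its hits are not listed in these tables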;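 also: calls also rest on retests at 20 µM and on dose response follow-up; controls were probe without protein and protein plus probe with vehicle; some compounds called inactive have numbers as strong as hits; many hits fall short of the cut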
# Target sequence (P11940 whole entry, looked up): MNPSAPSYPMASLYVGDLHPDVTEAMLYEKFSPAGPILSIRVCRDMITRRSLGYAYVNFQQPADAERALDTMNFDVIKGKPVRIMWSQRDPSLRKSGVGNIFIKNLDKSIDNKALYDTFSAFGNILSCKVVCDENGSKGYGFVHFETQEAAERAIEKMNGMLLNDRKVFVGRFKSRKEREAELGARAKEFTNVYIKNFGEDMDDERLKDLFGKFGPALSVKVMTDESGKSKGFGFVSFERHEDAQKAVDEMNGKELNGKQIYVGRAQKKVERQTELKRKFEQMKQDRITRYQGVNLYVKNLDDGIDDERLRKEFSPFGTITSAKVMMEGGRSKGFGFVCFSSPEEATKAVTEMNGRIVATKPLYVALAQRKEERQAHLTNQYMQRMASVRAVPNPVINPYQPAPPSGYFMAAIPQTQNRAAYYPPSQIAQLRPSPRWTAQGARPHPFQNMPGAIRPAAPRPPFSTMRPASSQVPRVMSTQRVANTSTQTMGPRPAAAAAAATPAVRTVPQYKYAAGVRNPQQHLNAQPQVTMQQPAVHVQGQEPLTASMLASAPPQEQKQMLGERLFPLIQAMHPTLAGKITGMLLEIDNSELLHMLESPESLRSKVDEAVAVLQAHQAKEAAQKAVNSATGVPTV
# Rce1 inhib = yeast Rce1p protease inhibitors, primary screen, biochemical, fluorescence, cell-free homogeneous; calls only; AID 2563, 2010; actives 0.27% (n = 290,000); yeast membranes, quenched prenylated peptide cleavage fluorescence;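 active = fall in fluorescence gain of 50% or more versus controls, with final raw signal at or below 3038400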;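 also: plate controls were neutral control wells for no effect and wells lacking membranes for full effect; tested at 10 µM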
# Target sequence (Q03530 whole entry, looked up): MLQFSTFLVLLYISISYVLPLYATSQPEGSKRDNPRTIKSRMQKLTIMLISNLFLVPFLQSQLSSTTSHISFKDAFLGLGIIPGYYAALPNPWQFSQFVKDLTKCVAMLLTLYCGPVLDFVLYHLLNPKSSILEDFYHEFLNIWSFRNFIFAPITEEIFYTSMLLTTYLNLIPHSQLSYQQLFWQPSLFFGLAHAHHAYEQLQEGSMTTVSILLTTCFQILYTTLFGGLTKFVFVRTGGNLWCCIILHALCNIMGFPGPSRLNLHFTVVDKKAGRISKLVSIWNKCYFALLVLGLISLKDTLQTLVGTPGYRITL
# MT1-MMP act inh = blockers of MT1-MMP proenzyme processing, primary screen, HT1080 RFP-PRO-GFP cells, GFP/RFP fluorescence; AID 651647, 2012; Matrix metalloproteinase-14 (Homo sapiens), P50281; actives 0.061% (n = 360,000); GFP/RFP ratio change, % at 20 µM; GFP/RFP ratio fluorescence, overnight; percent of plate control window, DMSO zero;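 active = GFP/RFP ratio change of at least 30% with cell ATP level not reduced by more than half and red fluorescence within 50% of control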; also: strong numbers were not always called active
#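 Assay system: HT1080 RFP-PRO-GFP cells. Benchmarks: DMSO vehicle wells and RFP-L50D-GFP reporter cell wells. Times: overnight cell settling, then overnight compound exposure, 37 °C, 5% CO2. Compound: 20 µM single dose, 1% DMSO. Read-out basis: GFP/RFP fluorescence ratio.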
# Yeast UUG start = modulators of yeast start codon fidelity, primary screen, whole organism, S. cerevisiae, single point, plate reader. actives 0.13% (n = 350,000). AID 602363, 2012. S. cerevisiae UUG-firefly luciferase reporter, luminescence/redox ratio. activity score, % at 18.7 µM;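 active = replicate mean at a twofold rise or more, about +100% in these data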;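 also: firefly luciferase made from a UUG start codon reports start codon fidelity; reporter light over untreated wells divided by growth signal over untreated wells; some hits fall short of that in this replicate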
# eIF4H FP inh = human eIF4H binding inhibitors, primary screen, translation initiation inhibitor project, biochemical, uHTS, fluorescence polarization | Eukaryotic translation initiation factor 4H (Homo sapiens), Q15056 | eIF4H fluorescence polarization binding assay | inhibition, % at 35 µM | actives 0.94% (n = 290,000) | AID 2012, 2009;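 active = 50% or more with normal probe brightness, or confirmed in later tests; about a fifth of its hits are not listed in these tables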;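 also: calls also rest on retests at 20 µM and on dose response follow-up; 0% = protein and probe with vehicle and 100% = probe without protein; strong numbers were not always called active; many hits fall short of the cut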
# eIF4H FP inh retest = second read-out of eIF4H FP inh, no call of its own (marks repeat the call); inhibition, %; compound at 20 µM; confirmation average;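 mean of two retest wells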
# PABP FP inh retest = also measured in PABP FP inh; calls as there; inhibition, %; compound at 20 µM; confirmation repeats;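 mean of two retest wells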
# MT1-MMP act inh RFP = also measured in MT1-MMP act inh; calls as there; RFP signal change, %; measured here: RFP expression control read;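 0 = vehicle wells; hits needed this value within 50% of zero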
# * hit, by the source's call; i = inactive; . = no result given. This is a subset. The share of hits here may be higher or lower than overall.
# The first 12 compounds, to show the layout:
SMILES,CSC inhib,Env fusion inh,PABP FP inh,Rce1 inhib,MT1-MMP act inh,MT1-MMP act inh RFP,Yeast UUG start,eIF4H FP inh,others
COc1ccc(Nc2nc(-c3ccccc3)cs2)cc1,5,-433,1,i,3,-4,-26,-8,
COc1ccc(C(=O)O)cc1NC(=S)NC(=O)/C=C/c1ccc(C(C)C)cc1,3,4,-4,i,1,-6,-20,-4,
CC1(C)Cc2ccccc2C(/C(C#N)=N/O)=N1,-8,-19,-4,i,-2,3,-8,-3,
CN(C)S(=O)(=O)N1CCC(Oc2cccc(C(=O)N3CCCCCC3)c2)CC1,3,-3,-2,i,1,-7,3,7,
Cc1cc(C)nc(NS(=O)(=O)c2ccc(N/C=C\C(=O)c3ccc(Cl)cc3)cc2)n1,-11,.,-3,i,1,-2,-10,-2,
CCN(c1cccc(C)c1)c1nc2ccsc2c(=O)s1,-5,-12,5,i,-6,-5,-20,5,
CCOc1ccc(NC(=S)c2ccc3ccccc3n2)cc1,11,-24,6,i,2,6,-26,5,
CC(C)CCNC(=O)c1ccc(Cl)c(NC(=O)Cc2ccccc2)c1,-5,12,8,i,.,.,.,3,
COc1ccc(C(CNC(=O)c2ccc(-c3ccccc3)cc2)N(C)C)cc1OC (stereo unspecified),-16,21,2,i,-4,-6,-12,3,
CC(=O)n1nc(-c2ccc(C)cc2)nc1NCc1ccc(F)cc1,.,-11,6,i,4,0,.,-9,
CCN(CC)CCNC(=O)c1cc2ccccc2nc1Cl,-7,-7,1,i,-2,-1,-5,5,
COc1c(Cl)cc(C(=O)NCc2ccco2)cc1Cl,-11,-10,0,.,-4,1,-10,-3,

# The listing, from the start:
SMILES,CSC inhib,Env fusion inh,PABP FP inh,Rce1 inhib,MT1-MMP act inh,MT1-MMP act inh RFP,Yeast UUG start,eIF4H FP inh,others
COc1ccc(Nc2nc(-c3ccccc3)cs2)cc1,5,-433,1,i,3,-4,-26,-8,
COc1ccc(C(=O)O)cc1NC(=S)NC(=O)/C=C/c1ccc(C(C)C)cc1,3,4,-4,i,1,-6,-20,-4,
CC1(C)Cc2ccccc2C(/C(C#N)=N/O)=N1,-8,-19,-4,i,-2,3,-8,-3,
CN(C)S(=O)(=O)N1CCC(Oc2cccc(C(=O)N3CCCCCC3)c2)CC1,3,-3,-2,i,1,-7,3,7,
Cc1cc(C)nc(NS(=O)(=O)c2ccc(N/C=C\C(=O)c3ccc(Cl)cc3)cc2)n1,-11,.,-3,i,1,-2,-10,-2,
CCN(c1cccc(C)c1)c1nc2ccsc2c(=O)s1,-5,-12,5,i,-6,-5,-20,5,
CCOc1ccc(NC(=S)c2ccc3ccccc3n2)cc1,11,-24,6,i,2,6,-26,5,
CC(C)CCNC(=O)c1ccc(Cl)c(NC(=O)Cc2ccccc2)c1,-5,12,8,i,.,.,.,3,
COc1ccc(C(CNC(=O)c2ccc(-c3ccccc3)cc2)N(C)C)cc1OC (stereo unspecified),-16,21,2,i,-4,-6,-12,3,
CC(=O)n1nc(-c2ccc(C)cc2)nc1NCc1ccc(F)cc1,.,-11,6,i,4,0,.,-9,
CCN(CC)CCNC(=O)c1cc2ccccc2nc1Cl,-7,-7,1,i,-2,-1,-5,5,
COc1c(Cl)cc(C(=O)NCc2ccco2)cc1Cl,-11,-10,0,.,-4,1,-10,-3,
CCOC(=O)c1cccc(NC(=O)c2ccccc2C)c1,-5,6,-12,.,0,-2,.,-9,
Cc1nc(SCC(=O)Nc2ccc3c(c2)OCCO3)nc(C)c1C,.,3,-4,i,10,-7,0,-3,
CCCCN1C[C@H](O)[C@@H](O)[C@H](O)[C@H]1CO,-16,14,-17,i,-1,-3,-20,2,
COc1ccc(CC(=O)Nc2cc(S(=O)(=O)N3CCCCC3)ccc2C)cc1,.,-68,.,.,5,0,-28,.,
Cc1cc(C)cc(N2C(=O)N(c3ccccc3C)C3CS(=O)(=O)CC32)c1 (stereo unspecified),-19,17,2,i,1,-2,-10,1,
O=C(COC(=O)/C=C/c1cccc(Cl)c1)Nc1c(F)cccc1F,-7,3,.,.,3,6,-5,.,
Cc1ccc(NC(=O)CN(C)C(=O)Cn2ncc(Cl)c(Cl)c2=O)cc1,110*,-53,7,i,0,-2,-13,6,
CC(NC(=O)COC(=O)C1CC1C)c1cccc(Cl)c1 (stereo unspecified),-10,.,.,.,2,2,-6,.,
Nc1nnc(-c2ccc(F)cc2)s1,-8,-78,2,i,4,9,-9,-3,
Cc1cc(CN2CCCC(N3CCc4ccccc4C3)C2)cc(C)c1O (stereo unspecified),-15,11,-2,i,3,1,-21,-4,
Nc1nc(SCC(=O)NCC2CCCO2)[nH]c(=O)c1NC(=O)c1ccc(F)c(F)c1 (stereo unspecified),-1,6,1,i,0,3,-7,-1,
Cc1ccc(-n2nc(C(=O)N3CCN(C)CC3)c3c4ccccc4n(C)c3c2=O)cc1,-2,-21,.,i,-5,-4,-13,.,
COc1ccc(OC)c(NC(=O)c2cc(-c3cc(Cl)ccc3O)n[nH]2)c1,62,55*,0,i,4,-6,-14,3,
COc1cc(OC)cc(C(=O)N2CCN(C(=O)Cc3ccccc3)CC2)c1,1,8,-16,i,-3,-2,-6,4,
COc1ccc(-c2csc(NC(=O)COC(=O)c3ccc(Br)o3)n2)cc1,-3,.,5,i,.,.,.,-13,
O=c1[nH][nH]cc1C=Nc1ccc(Oc2ccccc2)cc1,12,12,11,i,2,3,.,2,
CCCc1ccc(OCC(O)CN2CCN(CCO)CC2)cc1 (stereo unspecified),15,10,5,i,4,1,1,-2,
CNS(=O)(=O)c1ccc2c(c1)C(=O)c1cc(S(=O)(=O)NC)ccc1CC2,.,3,.,.,-6,-2,-6,.,
Cc1ccc(C2Nc3cccc4cccc(c34)N2)s1,-19,.,24*,i,9,5,6,103,eIF4H FP inh retest=23;PABP FP inh retest=65*
C/C(=N\NC(=O)c1ccccc1)c1ccccc1Br,-8,-12,2,i,10,11,.,-2,
COC(=O)CSc1nnc(CNc2ccc(OC)cc2)n1C,33,5,-2,i,0,-4,.,-6,
O=C(NCc1ccc(Cl)cc1)c1cc2ccccc2oc1=O,-5,7,3,i,2,5,-17,9,
COc1cc(NC(=O)C2CC(c3c(F)cccc3Cl)=NO2)cc(OC)c1OC (stereo unspecified),-6,-10,3,.,8,-21,-2,6,
CCN(CC)S(=O)(=O)c1ccc(S(=O)(=O)Nc2ccc(C(=O)N3CCCC3)cc2)cc1,10,.,5,i,0,-5,.,-5,
COc1ccc(CC(=O)OCC(=O)Nc2ncc(Cl)cc2Cl)cc1,4,.,14,i,1,2,-6,2,
CN(C)c1ccc(C(=O)NCC2CCCO2)cc1 (stereo unspecified),.,-56,-11,i,-1,1,-9,1,
Cn1cc(S(=O)(=O)c2ccccc2)c(=O)c2cc(F)c(N3CCOCC3)cc21,-1,-1,-5,i,-4,-1,-21,-2,
Cc1ccc(NCC(=O)Nc2c(C)n(C)n(-c3ccccc3)c2=O)cc1S(=O)(=O)N(C)C,-5,7,9,i,-4,2,-7,8,
Cc1ccc(CN(C)CC(=O)Nc2ccccc2C(=O)NC2CC2)o1,10,.,.,.,5,-2,1,.,
CCCCCCNC(=O)OC12CN(C(=O)OC(C)C)N(C(=O)OC(C)C)CC1(O)CN(S(=O)(=O)c1ccc(C)cc1)C2 (stereo unspecified),.,-18,.,.,0,0,3,.,
Cc1cc(C)n2nc(C(=O)N/N=C/c3c4ccccc4cc4ccccc34)nc2n1,7,-1,3,i,-12,-3,.,5,
COc1ccc(O)c(C(=O)c2cc(C(=O)NCCc3ccccc3)c(=O)n(CCc3ccccc3)c2)c1,6,1,2,i,-10,-17,-19,6,
O=C(CN1C(=O)S/C(=C/c2ccncc2)C1=O)N1CCOCC1,-5,.,-4,i,-1,-2,-4,0,
CCCCC(=O)Nc1ccc(NC(=O)C(C)C)cn1,-2,-114,2,i,-1,3,-14,4,
CCOc1ccc(NC(=O)CN(c2ccc(OC)cc2)S(=O)(=O)c2cccs2)cc1,4,1,.,.,7,-1,-12,.,
CC(=O)[C@H]1CC[C@H]2[C@@H]3CCC4=CC(=O)CC[C@]4(C)[C@H]3[C@H](O)C[C@]12C,-8,.,-2,i,-1,1,-24,-10,
Cc1ccc(Cn2c(C(CO)Nc3nc(-c4ccc(F)cc4)cs3)nc3ccccc32)cc1 (stereo unspecified),54,24,.,i,5,-2,-7,.,
CCCNc1nc(-c2cc(-c3ccc(Cl)cc3)on2)cc(C(C)C)n1,-1,-6,1,i,3,0,-17,2,
CSc1sc(C(=O)O)c(C)c1C(C)=O,.,.,-5,i,5,2,-13,2,
COc1ccc(NS(=O)(=O)c2cccc(C(=O)Nc3ccccc3C(=O)O)c2)cc1,-8,10,12,i,-2,-2,3,-5,
CCOc1ccccc1/C=N/n1c(C2CCCCC2)n[nH]c1=S,3,5,-1,i,-2,-2,-16,7,
CC(=O)Nc1cccc(NC(=O)Cc2ccc3ccccc3c2)c1,-13,-21,7,i,1,-10,-9,-2,
Cc1cc(C)c(S(=O)(=O)NCC(c2cccnc2)N2CCN(Cc3ccccc3)CC2)c(C)c1 (stereo unspecified),7,4,11,i,0,2,-25,-2,
CCCN(CCC)CCCNC(=O)c1cn(CC)c2ccc(S(=O)(=O)N3CCc4ccccc4C3)cc2c1=O,1,10,-3,i,-4,0,15,-5,
COc1ccc(S(=O)(=O)NCC(c2cccnc2)N2CCN(Cc3ccccc3)CC2)cc1 (stereo unspecified),6,-25,-14,i,-3,3,-4,8,
Cc1ccc(Cc2cncc(O)c2)cc1S(=O)(=O)O,6,-31,23,i,7,8,-9,4,
CCOc1ccc(N2CC(C(=O)NCCc3ccc(S(N)(=O)=O)cc3)CC2=O)cc1 (stereo unspecified),-16,0,-3,i,-2,-3,-14,-5,
Cc1ccccc1C(N)c1ccncc1 (stereo unspecified),-6,-2,9,i,2,-3,-9,6,

# More records.
SMILES,CSC inhib,Env fusion inh,PABP FP inh,Rce1 inhib,MT1-MMP act inh,MT1-MMP act inh RFP,Yeast UUG start,eIF4H FP inh,others
O=C1c2ccccc2C(=O)N1Cc1ccccn1,.,4,48,i,3,2,.,1,
COc1ccc(C(=O)N2CC(=O)N(CCc3ccccc3)C(=O)C2)cc1OC,-14,.,0,i,-8,0,0,-5,
CS(=O)(=O)c1ccc(C(=O)OCc2nnc(-c3ccccc3)o2)cc1[N+](=O)[O-],.,-273,-10,i,0,3,.,-15,
CC(=O)c1ccccc1C(=O)N1CCCC(CNC(=O)c2ccccc2Cl)C1 (stereo unspecified),0,-2,-2,i,-1,2,6,-12,
COC(OC)C1Nc2ccccc2C(=O)N1c1ccc(F)cc1 (stereo unspecified),.,0,.,.,-2,0,-17,.,
CCCn1ncc(CN2CCC(n3nccc3NC(=O)c3ccccc3OC)CC2)c1C,-3,-9,-1,i,2,3,-5,12,
CCn1cnc2cc(NCc3ccc(OC)cc3)ccc21,-3,-67,-1,i,3,3,-21,1,
